Screens deposited in PubChem BioAssay by National Center for Advancing Translational Sciences (NCATS).
Six1-Eya2 blk = blocks human Six1 binding to Eya2; 360,000 tested, 0.56% active; AID 651725; AlphaScreen GST-Six1/His-Eya2 binding, biochemical; stronger effect = lower value; control for the full effect not named in the record; activity change, % (test concentration not listed); Q15475+O00167; in the data active = activity change below about -65%; inconclusive = about -30% to -65%; inactive = above about -30%; further: on the % scale 0 is the no-effect control and ±100 the full control effect; compound concentration not given in the record
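Homogeneous AlphaScreen proximity assay pairing GST-Six1 with His-tagged Eya2 (added as 5X mix: 250 nM and 500 nM) in 50 mM Tris pH 8.0, 300 mM NaCl, 1 mM TCEP. Glutathione donor and nickel acceptor beads; 1 h, 37 °C, dark.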
D2 agonist = agonists of human D2 dopamine receptor (beta-arrestin). activation, % (no concentration beside the values). P14416. DiscoveRx PathHunter D2 beta-arrestin, luminescence, 90 min; 100% = 57 uM dopamine signal. AID 624465. 360,000 tested, 0.084% active; in the data active = activation above about 40%; inconclusive = about 15% to 40%; inactive = below about 15%; further: compound concentration not given in the record; the text of the record calls up to 30% inactive
Target sequence (P14416 whole entry, looked up): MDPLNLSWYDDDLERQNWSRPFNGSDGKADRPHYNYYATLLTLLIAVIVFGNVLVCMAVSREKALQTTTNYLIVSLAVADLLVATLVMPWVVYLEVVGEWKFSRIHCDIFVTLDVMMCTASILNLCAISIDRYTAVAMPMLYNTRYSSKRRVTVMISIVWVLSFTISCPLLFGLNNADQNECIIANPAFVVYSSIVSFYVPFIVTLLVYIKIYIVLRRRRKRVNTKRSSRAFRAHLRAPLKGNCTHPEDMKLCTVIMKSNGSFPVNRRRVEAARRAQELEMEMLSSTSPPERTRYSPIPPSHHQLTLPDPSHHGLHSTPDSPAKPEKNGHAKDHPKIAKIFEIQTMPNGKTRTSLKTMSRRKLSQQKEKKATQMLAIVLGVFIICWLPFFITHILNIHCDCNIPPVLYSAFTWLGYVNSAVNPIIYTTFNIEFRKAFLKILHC
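DiscoveRx PathHunter D2 beta-arrestin cells (2,100/well) attached overnight, then compound-stimulated 90 min at 37 C in HBSS/10 mM HEPES/0.1% Tween-20 buffer; beta-galactosidase complementation read by luminescence after 1 h at ambient temperature. Dopamine 57 uM final (EC100) as control.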
PINK1 expr mod = modulators of PINK1 expression; PINK1 immunofluorescence, high-content cytometry, 24 h; Potency, µM (highest dose often 76.6 µM), without a hit: at the top dose activation (PINK1 increase), actives largely listed as activators; 410,000 tested, 0.2% active; AID 624263; active = well fitted activation curve with a large enough effect; inconclusive = small, poorly fitted or top-dose-only effect; inactive = flat fitted curve, though single readings scatter; cell line not stated here;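 further: potency means the concentration at half of the fitted maximal effect; % of control where 0% means no effect; nearly all actives have a fitted effect of over 65% in size; a mitochondrial uncoupler was the plate control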
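Compound titrations (5 concentrations, 24 h) on a stable cell line; DMSO and CCCP controls. Endpoint: fixed-cell PINK1 immunofluorescence with mitochondrial, cell and nuclear markers, scanned by microplate cytometer.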
CtBP-E1A inh = CtBP/E1A binding inhibition; AlphaScreen GST-E1A/His-CtBP binding, 1536-well; stronger effect = lower value; control for the full effect not named in the record; activity change, % (concentration not given with the values); 340,000 tested, 0.49% active; AID 651724; in the data active means activity change below about -65%; inconclusive means about -30% to -65%; inactive means above about -30%; further: on the % scale 0 is the no-effect control and ±100 the full control effect
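GST-E1A and His-tagged CtBP (125 nM each as 5X stock) were preincubated with pin-transferred compound for 2 h at 37 °C in the dark, then glutathione donor and nickel acceptor beads were added for 1 h before AlphaScreen reading.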
TRPML1 ag = agonists of human TRPML1 channel. Q9GZU1. TRPML1-expressing cells, Ca2+ dye fluorescence, FDSS; host cell line not named in the record; reference of the full effect not given here. activation, % (test concentration not listed). 410,000 tested, 0.12% active; in the data active = activation above about 50%; inconclusive = about 30% to 50%; inactive = below about 30%; further: 0% is about no effect; the text of the record puts the active cut at 80%
Target sequence (Q9GZU1 whole entry, looked up): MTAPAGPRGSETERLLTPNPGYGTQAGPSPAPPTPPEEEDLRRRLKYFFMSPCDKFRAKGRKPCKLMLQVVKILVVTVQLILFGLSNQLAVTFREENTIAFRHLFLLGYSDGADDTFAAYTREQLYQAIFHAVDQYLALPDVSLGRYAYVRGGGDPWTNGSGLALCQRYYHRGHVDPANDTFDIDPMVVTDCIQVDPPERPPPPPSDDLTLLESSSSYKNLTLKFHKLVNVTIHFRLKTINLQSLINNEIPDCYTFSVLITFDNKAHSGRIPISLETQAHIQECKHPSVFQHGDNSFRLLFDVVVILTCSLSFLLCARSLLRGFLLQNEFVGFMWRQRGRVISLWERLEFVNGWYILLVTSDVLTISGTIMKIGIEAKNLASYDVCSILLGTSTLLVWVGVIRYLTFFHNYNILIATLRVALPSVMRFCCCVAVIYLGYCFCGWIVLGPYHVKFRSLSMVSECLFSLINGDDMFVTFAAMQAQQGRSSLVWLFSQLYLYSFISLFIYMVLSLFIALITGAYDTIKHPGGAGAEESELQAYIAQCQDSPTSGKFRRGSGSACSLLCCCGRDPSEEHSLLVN
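Tet-induced TRPML1-DL cells, 1,500 per well, cultured overnight, were loaded with a no-wash Ca2+ dye for 45–90 min. Calcium fluorescence was recorded on the FDSS for 110 s after compound addition, before the EC80 agonist (4 uM 54-4) was added.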
TRPML1 blocker = blocks the human TRPML1 channel | activity change, negative = inhibition, % (concentration not given with the values) | AID 624415 | Q9GZU1 | 390,000 tested, 0.02% active | TRPML1-inducible cells, Ca2+ dye fluorescence, FDSS; stronger effect = lower value; inhibition of EC80 agonist-evoked calcium signal; in the data active means activity change below about -50%; inconclusive means about -30% to -50%; inactive means above about -30%;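 further: stimulus is agonist 54-4 at its EC80 concentration; on the % scale 0 is the no-effect control and ±100 the full control effect; compound concentration not given in the record; the text of the record puts the active cut at -80%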
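Calcium fluorescence in TRPML1-DL cells induced overnight with Tet: a 110 s read after compound pin addition, then a 110 s antagonist read after challenge with 54-4 at 4 uM final (EC80).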
* marks the source's active call; other numbers are inactive results; ? = inconclusive; · = no result given; [ ] = remark or other dose. Rows are unselected; any-hit rate near 1%.

Each structure is followed by: Six1-Eya2 blk | D2 agonist | PINK1 expr mod | CtBP-E1A inh | TRPML1 ag | TRPML1 blocker
COC(=O)[C@@]1(Cc2ccc(OC)cc2)[C@H]2c3cc(C(=O)N(C)C)n(Cc4ccc(OC(F)(F)F)cc4)c3C[C@H]2CN1C(=O)c1ccccc1
  -18 | -2.5 | 1.3% | -12 | -0.6 | 48
CCN1C(=O)[C@H]2[C@@H](c3ccc(C)cc3)N[C@]3(CCCN(Cc4ccc(C)cc4)C3=O)[C@H]2C1=O
  -17 | -6.3 | 4.9% | -30 | -0.3 | -7
COc1ccc(NS(=O)(=O)c2ccc(C(=O)N(C)Cc3cccs3)cc2)cc1
  0 | -0.3 | -1.5% | 8 | 9.2 | -10
CC(C)(C)c1[nH]nc2c1C(c1ccco1)C(C#N)=C(N)O2 (stereo not given)
  -1 | -2.5 | 1.3% | 11 | 0.2 | 1
O=C(Nc1ccc(S(=O)(=O)Nc2ccccc2)cc1)C1CC1
  1 | -2.8 | 1.4% | 2 | 0.2 | 13
COc1ccc2c(c1)[C@H]1[C@H](CO2)[C@H](c2ccccc2)[C@@]2(C)C(=O)N[C@H](C)C(=O)N12
  0 | -3.6 | 0.2% | 7 | -0.3 | -5
Cc1onc(-c2c(Cl)cccc2Cl)c1C(=O)NC(=S)Nc1sc2c(c1C(N)=O)CCC(C)C2 (stereo not given)
  8 | 1.2 | -1.1% | -10 | 0.6 | -8
Cc1csc2c(N3CCN(C(=O)c4ccc(C(C)(C)C)cc4)CC3)ncnc12
  0 | -3.7 | 2.0% | · | -1.4 | -8
Cc1ccc(NC(=O)COC(=O)/C=C/c2ccccc2)cc1S(=O)(=O)N1CCOCC1
  4 | 0.3 | -1.8% | -7 | 0.4 | -2
O=C1CCCCC1C(=O)c1cn(-c2ccc(Cl)c(Cl)c2)nn1 (stereo not given)
  3 | -1.1 | 5.0% | -5 | -0.7 | 8

Full records, quoted from the list:
`Cc1csc2c(N3CCN(C(=O)c4ccc(C(C)(C)C)cc4)CC3)ncnc12` is listed with Six1-Eya2 blk = 0; D2 agonist = -3.7; PINK1 expr mod = 2.0%; CtBP-E1A inh = ·; TRPML1 ag = -1.4; TRPML1 blocker = -8
`Cc1onc(-c2c(Cl)cccc2Cl)c1C(=O)NC(=S)Nc1sc2c(c1C(N)=O)CCC(C)C2` (stereo not given) is listed with Six1-Eya2 blk = 8; D2 agonist = 1.2; PINK1 expr mod = -1.1%; CtBP-E1A inh = -10; TRPML1 ag = 0.6; TRPML1 blocker = -8
`COc1ccc2c(c1)[C@H]1[C@H](CO2)[C@H](c2ccccc2)[C@@]2(C)C(=O)N[C@H](C)C(=O)N12` is listed with Six1-Eya2 blk = 0; D2 agonist = -3.6; PINK1 expr mod = 0.2%; CtBP-E1A inh = 7; TRPML1 ag = -0.3; TRPML1 blocker = -5

Additional compounds:
Each structure is followed by: Six1-Eya2 blk | D2 agonist | PINK1 expr mod | CtBP-E1A inh | TRPML1 ag | TRPML1 blocker
CCOC(=O)Cn1c(=O)n(-c2ccccc2OC)c2nc(-c3cccc(F)c3)nc(C(N)=O)c21
  · | · | -0.7% | · | 1.8 | 4
CCSc1nnc(SCC(=O)c2c(N)n(C)c(=O)n(C)c2=O)s1
  -6 | -2.0 | 2.3% | -12 | 0.5 | 14
Cc1ccc(C)c(Cn2cnc3c(cnn3C(C)(C)C)c2=O)c1
  9 | -3.1 | 0.3% | 0 | 1.7 | -11
NC(N)=NS(=O)(=O)c1ccc(NC(=S)NC(=O)c2ccccc2)cc1
  3 | -17 | 4.1% | 6 | · | ·
CN(C)c1ccc(C(C(=O)NC(C)(C)C)N(C(=O)c2csnn2)C2CC2)cc1 (stereo not given)
  3 | -3.1 | -0.5% | 8 | -0.6 | 4
O=S(=O)(NCc1ccccc1Cl)c1ccc(-n2cccn2)cc1
  20 | -4.7 | 0.4% | -13 | -0.5 | -4
Cn1c(=O)c2c(nc(CN3CCN(C(=O)c4ccco4)CC3)n2Cc2ccccc2)n(C)c1=O
  -19 | -0.8 | 3.3% | -18 | -0.7 | 40
Cc1cc(N2CCOCC2)nc(SCC(=O)OCc2ccccc2)n1
  -9 | -0.4 | 0.0% | -7 | -0.1 | 6
Cc1ccc(S(=O)(=O)N(CC(=O)Nc2cccc([N+](=O)[O-])c2)Cc2ccc(Cl)cc2)cc1
  -12 | -7.5 | 3.7% | · | 0.9 | -3
NC(=O)C1CCN(c2cc(Cl)ccc2[N+](=O)[O-])CC1
  1 | -3.8 | 0.1% | 8 | 0.2 | -6
COc1ccc(-c2cc(=O)oc3cc(OC(C)C(=O)NCCCn4ccnc4)ccc23)cc1 (stereo not given)
  -13 | -2.2 | 1.9% | -6 | -0.3 | 6
c1cn(CCCNc2ncnc3nc[nH]c23)cn1
  1 | 3.4 | 1.0% | 0 | -0.1 | -5
CN(C)C(=O)CCc1ccc2c3c([nH]c2c1)[C@]1(CCC2CCCC2)[C@@H](C(=O)N2CCOCC2)C[C@H](CC(=O)NCCCn2ccnc2)C(=O)N1CC3
  4 | 1.5 | -0.8% | -8 | -0.4 | 1
COc1ccc(OCCCCn2c(-c3ccc(Cl)cc3)nc3ccccc3c2=O)cc1
  · | · | -0.2% | · | 0.1 | 2
CCCCCC(=O)Nc1cccc(S(=O)(=O)NC2=NCCCCC2)c1
  5 | -3.4 | -0.3% | · | -1.0 | 31
O=C(OCC(=O)c1c[nH]c2ccccc12)c1cc2ccccc2cc1O
  1 | 1.5 | ? | -13 | 1.3 | 13
O=C(COC(=O)c1ccc([N+](=O)[O-])o1)NC1CCS(=O)(=O)C1 (stereo not given)
  1 | 5.8 | 2.9% | 16 | 0.1 | 18
Cc1ccc(C(=O)N2N=C(c3cccc(NS(C)(=O)=O)c3)CC2c2cccs2)cc1 (stereo not given)
  -2 | 4.2 | -0.4% | · | 1.4 | -6
NC(=O)c1cc(S(=O)(=O)N2CCN(c3ccc(F)cc3)CC2)cs1
  · | · | 2.9% | · | -1.3 | 7
CSCC[C@H](NC(=O)[C@H](Cc1ccccc1)n1c(=O)[nH]c2ccccc2c1=O)C(=O)NCC1CCC(C(=O)O)CC1 (stereo not given in full)
  1 | 6.8 | 0.1% | 8 | · | ·
CC(=O)Nc1ccc2nc(CN3CCN(CC(C)C)C(CCO)C3)ccc2c1 (stereo not given)
  -2 | -0.5 | 4.1% | 2 | 0.0 | -10
O=C(CCN1CCN(c2ccccc2F)CC1)Nc1cccc(F)c1
  -6 | -4.5 | 1.5% | 8 | -0.1 | 3
CC(C)c1ccc(CNc2ccc(N3CCOCC3)cc2)cc1
  -72* | 0.6 | -1.0% | -67* | -1.1 | 5
CC(C)n1nnnc1C1c2ccccc2C(=O)N1CCCn1ccnc1 (stereo not given)
  7 | · | 0.4% | 5 | -0.9 | ·
CC(C)C[C@@H]1COc2cccc(N(C)CCO)c2S(=O)(=O)N1
  7 | · | 2.1% | 10 | -0.3 | ·
CN(C(=O)c1c(Cl)cnn1C)C12CC3CC(CC(C3)C1)C2
  11 | 3.8 | 7.2% | 0 | 2.1 | -9
CNC(C)C(=O)NC(C(=O)N1CCCC1C(=O)Nc1ccc2ncccc2c1)C(C)C (stereo not given)
  -3 | -1.3 | 0.0% | -24 | 0.6 | 1
Cc1cc(SCC(N)=O)nc(SCC(=O)c2ccccc2)n1
  20 | -3.1 | -1.8% | 0 | 1.7 | -1
COc1ccc(C(=O)NC2CCCCCC2)cc1OC1CCN(C(C)=O)CC1
  3 | -1.3 | -1.5% | 7 | -0.5 | 42
COc1ccc(NC(=O)Cn2c(SCc3ccc(F)cc3)nc3cccnc32)c(OC)c1
  · | · | 1.8% | · | -0.7 | 17
O=P(O)(CCc1ccccn1)CN1CCOCC1
  -8 | -1.4 | ? | 0 | -0.3 | -5
CCC(C)c1ccc(OCC(=O)Nc2ccc(Cl)cn2)cc1 (stereo not given)
  15 | -4.5 | · | 2 | -0.1 | -11
COCCN(C(=O)c1ccc2c(c1)C(=O)N(c1ccccc1Cl)C2=O)c1c(N)n(CC(C)C)c(=O)[nH]c1=O
  1 | 3.0 | -0.1% | 8 | -0.8 | 51
Cc1cc(C)n(C(=O)CCCn2nc(C)c([N+](=O)[O-])c2C)n1
  4 | -1.9 | 1.8% | -3 | -0.1 | 21
CC1(C(=O)NCCc2ccccc2)Cc2c(-c3ccc(C(N)=O)cc3)ccnc2O1 (stereo not given)
  0 | -4.2 | 11% | 2 | -0.7 | ·
O=C1CSC(c2ccccc2Br)N1c1ccc(Cl)cn1 (stereo not given)
  2 | -0.8 | 5.2% | 29 | 0.1 | 13
COc1ccccc1CNc1nc2cc(-c3ccccc3C)sc2c(=O)n1C
  -3 | -4.1 | 8.1% | -3 | -0.3 | ·
Cc1ccc2c(c1)/C(=C/c1ccccc1)C(=O)N2
  2 | -3.1 | 0.1% | -2 | -0.5 | -12
O=C(CCC(=O)c1ccccc1)NCc1cccc(C(F)(F)F)c1
  8 | -2.5 | 2.6% | 4 | 1.6 | 20
CCN(CC)C(=O)CSc1nc(O)c(Cc2ccccc2)c(=O)n1-c1ccc(C)cc1
  0 | 2.7 | 0.4% | · | 0.2 | 26
Cc1ccc(C(=O)NCCc2nnc3ccc(NCc4ccc5c(c4)OCO5)nn23)cc1
  -11 | -2.6 | 1.7% | 0 | -0.3 | -2
CSc1ncc(Cl)c(C(=O)Nc2ccccc2[N+](=O)[O-])n1
  7 | 2.3 | -0.4% | -1 | 0.2 | -9
Fc1ccc(NC(=S)Nc2ccc3nccnc3c2)cc1
  -8 | 2.6 | -0.3% | · | 0.9 | 7
N#C/C(=C/c1ccc(-c2cccc([N+](=O)[O-])c2)o1)C(=O)Nc1nc(-c2cccs2)cs1
  -28 | -2.1 | 0.7% | -29 | -1.0 | -11
C[C@@H]1CN([C@@H](C)CO)C(=O)CCCn2nncc2CO[C@@H]1CN(C)C(=O)Nc1ccc2c(c1)OCO2
  -2 | -10 | -0.6% | 6 | -0.1 | 10
CNS(=O)(=O)c1cc(OC)ccc1OC
  -8 | 0.0 | 3.9%[38.3 µM] | 0 | 0.1 | 15
Cn1c(=O)c2c(nc(OCCc3ccccc3)n2C)n(C)c1=O
  -16 | -2.4 | -0.8% | -6 | -0.1 | -8
